# Screening data from PubChem.
# LANA-H2B inh: blocks KSHV LANA binding to histone H2A/H2B | cell-free LANA-H2A/H2B peptide, fluorescence polarization | hit rate 0.6% among 320,000 | Q9QR71 | inhibition, % (concentration not given with the values); in the data active means inhibition mostly above about 10%, no sharp cut-off; inactive means mostly below about 6.7%;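 further: stock transfer was 7.5 nL into about 10 µL; 0% = median of vehicle wells and 100% = median of positive control wells; one replicate is shown; the record names a cut of 25% in any replicate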
# B2AR ag: human beta-2 adrenergic receptor agonism by FAP; hit rate 0.43% among 340,000; AID 504454; response, % (no concentration beside the values); P07550; Am2.2-beta2AR cells, FAP receptor internalization, flow cytometry; reference of the scale not given here;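 active means response above a set limit, near 3 SD of response in nonfluorescent compounds, cut at about 42% in these data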;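 further: stock transfer was 100 nL into about 11 µL; a reference agonist was the positive control; negative values mostly stem from fluorescent compounds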
# Target sequence (P07550 whole entry, looked up): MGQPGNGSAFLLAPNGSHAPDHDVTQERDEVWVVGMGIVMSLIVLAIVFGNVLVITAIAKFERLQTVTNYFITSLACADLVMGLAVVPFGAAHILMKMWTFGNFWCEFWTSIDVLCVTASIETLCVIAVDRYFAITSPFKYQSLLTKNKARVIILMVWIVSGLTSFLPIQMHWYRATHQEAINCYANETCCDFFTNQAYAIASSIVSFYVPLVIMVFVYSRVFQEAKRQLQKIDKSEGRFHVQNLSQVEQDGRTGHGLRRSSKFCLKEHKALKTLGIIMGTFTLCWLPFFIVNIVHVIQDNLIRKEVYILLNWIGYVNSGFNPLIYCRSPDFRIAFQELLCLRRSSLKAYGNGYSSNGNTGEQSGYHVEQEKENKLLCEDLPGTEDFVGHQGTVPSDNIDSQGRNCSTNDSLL
# UCH37 inh: blocks the human deubiquitinase UCH37; purified proteasome/UCH37, Ub-AMC cleavage fluorescence; inhibition, % (no concentration beside the values); hit rate 0.33% among 330,000; AID 588478;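 active means mean of two replicates above 20%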;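 further: 0% = compound-free wells with enzyme and 100% = wells lacking proteasome; stock transfer was 100 nL into about 20 µL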
# Target sequence (Q9Y5K5 whole entry, looked up): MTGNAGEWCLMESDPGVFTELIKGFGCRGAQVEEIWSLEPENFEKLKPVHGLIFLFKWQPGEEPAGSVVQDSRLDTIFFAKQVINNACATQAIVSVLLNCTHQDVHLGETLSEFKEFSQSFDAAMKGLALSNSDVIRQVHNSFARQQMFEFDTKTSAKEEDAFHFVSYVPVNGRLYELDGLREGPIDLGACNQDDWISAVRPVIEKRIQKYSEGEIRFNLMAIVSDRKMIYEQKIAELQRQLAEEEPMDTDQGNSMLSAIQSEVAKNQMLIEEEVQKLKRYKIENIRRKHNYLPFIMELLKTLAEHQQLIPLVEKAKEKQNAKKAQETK
#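 Material: human UCH37 enzyme supplied as purified proteasome complex / Amount: 0.15 nM proteasome as dispensed / Buffer or medium: pH 7.4 Tris-HCl (50 mM) with ovalbumin, ATP-MgCl2, DTT / Times: preincubation 30 min, reaction 25 min, room temperature / Technique: AMC fluorescence from Ub-AMC cleavage, excitation 355 nm, emission 460 nm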
# ALR H2O2 inh: human ALR oxidase inhibition via reduced H2O2. purified ALR, DTT oxidation, H2O2 HRP-luminol luminescence. inhibition, % (no concentration beside the values). hit rate 3.8% among 290,000. AID 485317. P55789;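 active means mean and each replicate at 75% or more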;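 further: stock transfer was 7.5 nL into about 7.5 µL; 0% = neutral wells and 100% = wells with inactivated enzyme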
# Target sequence (P55789 whole entry, looked up): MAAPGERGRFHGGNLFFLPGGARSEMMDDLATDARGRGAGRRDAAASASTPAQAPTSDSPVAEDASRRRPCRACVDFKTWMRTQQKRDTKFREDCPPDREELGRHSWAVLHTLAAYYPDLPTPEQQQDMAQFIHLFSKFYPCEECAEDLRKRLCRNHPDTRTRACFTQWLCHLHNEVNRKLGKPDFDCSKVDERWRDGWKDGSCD
# FGF22 binding: shifts melting point of recombinant human FGF22 | Q9HCT0 | recombinant FGF22 thermal shift, SYPRO orange fluorescence; percent of sucrose octasulfate shift, DMSO zero | calls only at 9.99 µM | hit rate 1.5% among 340,000 | AID 651658;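 active means melting point raised past a set limit in the mean and every replicate; three in four hits are not shown here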
# E coli growth: blocks Escherichia coli growth | OD600 absorbance (test concentration not listed) | OD600, 23 h; hits give low values | hit rate 0.21% among 330,000;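 active means OD600 absorbance below the run mean of sample wells minus 3.6 SD, in any replicate, cut at about 0.56 in these data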;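 further: stock transfer was 300 nL into about 60 µL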
# HNF4A DNA FP: change in binding of human HNF4 alpha to DNA; P41235; HNF4a-FITC DNA binding, fluorescence polarization, 1 h; activity change, % at 10 µM; hit rate 0.3% among 360,000; in the data active means activity change above about 30%, passing the limit was not always enough;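 further: controls were the assay level and a saturating level of protein; the project sought stronger binding though the title names inhibitors; some compounds called inactive have numbers as strong as hits; positive values seem to mean higher polarization but the record does not say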
# Active calls of the source: *; i = inactive; · = not tested or not shown. These rows are one share of the data; count on the stated rates, not on these rows.
SMILES,LANA-H2B inh,B2AR ag,UCH37 inh,ALR H2O2 inh,FGF22 binding,E coli growth,HNF4A DNA FP
COc1cccc2[nH]c3c(=O)[nH]cnc3c12,-0.8,-1.4,-460.8,-25.6,i,0.706,1.4
O=C(NCc1ccccc1)C(c1ccco1)N(C(=O)c1cnccn1)c1ccc(F)cc1 (stereo unspecified),-10.7,0.1,·,-4.7,·,·,-5.6
C#CCOC(=O)Nc1cccn(Cc2c(Cl)cccc2Cl)c1=O,2.7,2.2,-4.5,-14.7,·,0.672,-1.3
COC(=O)/C=C1/SC(=Nc2ccc(Cl)c(Cl)c2)NC1=O,-1.2,17.2,2.8,-21.2,i,0.641,-5.7
COc1cccc(Cn2cc(N)cn2)c1,4.8,9.0,13.7,·,i,0.657,-2.9
CC(=O)NCC(=O)N(c1c(C)n(C)n(-c2ccccc2)c1=O)C1(C(=O)NC2CCCC2)CCCCC1,7.4,0.3,3.5,-5.8,·,0.66,-1.7
C/C(=N\NC(=O)c1ccc(Br)cc1)C1C(=O)c2ccccc2C1=O,-5.0,8.5,·,45.8,i,·,2.0
COc1ccc(S(=O)(=O)N2CCC(C(=O)N(C)Cc3ccc(C)o3)CC2)cc1OC,1.5,0.7,1.9,3.1,i,0.676,3.1
COc1ccc(-c2ocnc2C(=O)Nc2ccc(N3CCOCC3)cc2N2CCOCC2)cc1OC,1.9,11.2,-1.3,·,i,0.687,2.7
CN(CC(=O)Nc1ccc(F)c(F)c1F)C(=O)C1CCCO1 (stereo unspecified),-5.9,-1.5,0.6,-6.8,i,0.65,2.6
CCCCC[n+]1ccn(-c2nc3ccccc3nc2[N-]S(=O)(=O)c2ccccc2)c1,-5.8,-6.8,-94.5,-3.7,i,0.689,1.2
Cc1cc2c(c(=O)o1)C(C(C)C)C(C#N)=C(N)O2 (stereo unspecified),-3.5,-6.7,3.5,16.7,·,0.716,0.6
CC1(C)CC(=O)C=C(NCc2ccncc2)C1,-0.9,-2.9,-2.0,-0.2,·,0.627,-0.1
CN(Cc1ccccc1)C(=O)c1ccccc1Br,-4.0,-1.8,2.7,-1.8,·,0.675,-1.2
COCCn1c(C)cc2c(c1=O)C(c1ccccc1F)C(C#N)=C(N)O2 (stereo unspecified),4.2,-2.2,·,-4.4,·,·,4.1
Cn1c(=O)c2[nH]c(COc3ccc(C(C)(C)C)cc3)nc2n(C)c1=O,-1.5,-12.4,0.7,-2.1,·,0.708,4.8
OCCNCCCCOc1ccc(OCc2ccccc2)cc1,3.2,-8.4,2.5,-26.6,i,0.676,2.7
O=C1CC(c2ccccc2)CC(O)=C1C=Nc1ccc(Cl)cc1 (stereo unspecified),-3.3,0.8,-0.5,0.9,·,0.747,1.7
O=Cc1coc2ccc3ccccc3c2c1=O,11.4,10.7,-2.3,-12.4,i,0.608,-0.5
COc1ccccc1NC(=O)CN1CCC(C(=O)c2ccc(F)cc2)CC1,-4.8,4.8,5.9,-5.3,·,0.702,1.0
O=C(N/N=C/c1ccc2nccnc2c1)c1ccccc1O,-1.1,·,·,4.4,i,·,·
COc1ccc(-c2noc(-c3ccccc3C(=O)NCC3CCCO3)n2)cc1 (stereo unspecified),0.2,-7.1,3.7,-2.5,i,0.625,-0.5
O=C(c1cc(COc2ccc(F)cc2Cl)on1)N1CCCCC1c1cccnc1 (stereo unspecified),-2.6,-7.2,2.2,-3.4,i,0.676,-0.7
Cc1ccc(/C=N/NC(=O)c2nc3nc(C)cc(C)n3n2)cc1,-0.4,-18.9,·,11.4,i,·,-2.2
Cc1ccc(S(=O)(=O)N2CCN(C(=O)C(C)Cn3cncn3)CC2)cc1 (stereo unspecified),-1.6,16.7,3.7,24.9,i,0.669,-6.2

# Next section; the last 2 above are carried over.
SMILES,LANA-H2B inh,B2AR ag,UCH37 inh,ALR H2O2 inh,FGF22 binding,E coli growth,HNF4A DNA FP
Cc1ccc(/C=N/NC(=O)c2nc3nc(C)cc(C)n3n2)cc1,-0.4,-18.9,·,11.4,i,·,-2.2
Cc1ccc(S(=O)(=O)N2CCN(C(=O)C(C)Cn3cncn3)CC2)cc1 (stereo unspecified),-1.6,16.7,3.7,24.9,i,0.669,-6.2
CC(Oc1ccc(Cl)cc1Cl)C(=O)Nc1cccnc1 (stereo unspecified),0.0,-2.5,6.1,-47.1,·,0.671,-4.2
CCc1nc(SCC(=O)c2cccs2)c2oc3ccccc3c2n1,0.0,-2.0,3.9,2.1,·,0.719,-1.1
CC(NC(=O)/C(=C\c1ccco1)NC(=O)c1ccccc1Br)C(=O)O (stereo unspecified),-1.2,3.5,4.3,-5.0,i,0.688,-2.1
CC(NC(=O)Cn1cnnn1)c1cccc(C(F)(F)F)c1 (stereo unspecified),-1.5,-8.4,-0.7,-3.7,i,0.655,3.0
O=c1c2ccccc2nnn1Cc1ccccn1,4.1,0.2,-2.0,-5.8,·,0.651,-1.8
CCc1cc2c(=O)c(-c3nc4ccccc4n3C)c(CCCC(=O)O)oc2cc1OC(=O)C(C)(C)C,-9.5,0.5,-6.6,4.1,i,0.644,-4.7
CC(C)Cn1c(=O)c(C(=O)N/N=C/c2cccc(F)c2)c(O)c2ccccc21,3.8,13.8,·,-4.3,i,·,-0.5
COC(=O)Nc1cc(C(=O)c2ccc(Cl)cc2Cl)c[nH]1,-3.0,12.3,2.1,24.3,i,0.634,5.3
Cc1cccc2cc(CN(CC3CCCO3)C(=S)Nc3ccccc3)c(=O)[nH]c12 (stereo unspecified),0.6,0.6,2.8,1.0,·,0.677,-0.8
Cc1ccc(NC(=S)NCc2ccc3c(c2)cc(C)n3C)c(C)c1,-0.2,-3.3,0.3,4.4,i,0.65,0.1
C/C(=N/O)c1ccc(Oc2cnccn2)cc1,-2.4,-2.3,·,-8.3,i,·,5.1
COc1ccc([N+](=O)[O-])cc1N(CC(=O)NC(C(C)C)C(C)C)S(C)(=O)=O,4.0,0.3,1.7,-7.3,i,0.691,5.3
CN1C(=O)[C@H]2[C@@H](/C=C/c3ccccc3)N3C(=O)CN(Cc4ccccc4)C(=O)[C@@]3(C)[C@H]2C1=O,6.7,0.5,1.6,-0.6,i,·,-0.8
COc1ccccc1C(=O)NN(C)C1=NS(=O)(=O)c2ccccc21,-4.4,3.6,3.0,-5.7,i,0.685,5.7
CCC1(C)Cc2c(sc3[nH]c(=S)[nH]c(=S)c23)CO1 (stereo unspecified),3.3,-0.7,·,-0.7,i,·,7.0
Cc1ccc(-c2nc(SCC(N)=O)c(C#N)c3c2CCCC3)cc1,3.1,13.9,-7.7,-5.9,·,0.701,4.2
CC(=O)CCC(=O)NCCc1ccccc1F,5.9,-8.7,-0.4,-0.3,·,0.739,-2.3
CC1CC(C)CN(C(=O)CSc2nc(Cc3cccs3)nc3ccccc23)C1 (stereo unspecified),-8.2,7.4,3.4,-4.6,·,0.711,3.5
CCOc1ccccc1-c1cc(C(=O)N/N=C/c2cccnc2)c2ccccc2n1,-7.6,-2.2,·,-11.4,i,·,1.7
CC(C)(C)C(C(=O)O)N1CCS(=O)(=O)CC1 (stereo unspecified),-3.9,-4.3,2.4,-15.2,i,0.715,1.8
COc1ccc(-c2nc3c(c(SCC(=O)N4CCOCC4)n2)COC(C)(C)C3)cc1,-3.0,-12.5,2.1,-2.3,·,0.752,1.7
Cc1ccc(C(=O)NC2CCCCC2)cc1S(=O)(=O)N1CCCC1,0.2,-0.3,3.7,2.0,i,0.65,1.5
COc1cc(OC)c(C(=O)NCCCn2ccnc2)cc1OC,-1.0,-2.3,1.6,-9.2,·,0.732,-3.4
Cc1ccccc1OCC(O)Cn1c(NCc2ccco2)nc2c1c(=O)n(C)c(=O)n2C (stereo unspecified),1.1,-6.1,2.7,-8.0,i,0.625,1.8
O=C(CCc1nc2ccccc2[nH]1)N1CCc2ccccc2C1,8.7,-4.1,12.2,·,i,0.702,3.5

# The final 4 compounds of the section above come first, to join the parts:
SMILES,LANA-H2B inh,B2AR ag,UCH37 inh,ALR H2O2 inh,FGF22 binding,E coli growth,HNF4A DNA FP
Cc1ccc(C(=O)NC2CCCCC2)cc1S(=O)(=O)N1CCCC1,0.2,-0.3,3.7,2.0,i,0.65,1.5
COc1cc(OC)c(C(=O)NCCCn2ccnc2)cc1OC,-1.0,-2.3,1.6,-9.2,·,0.732,-3.4
Cc1ccccc1OCC(O)Cn1c(NCc2ccco2)nc2c1c(=O)n(C)c(=O)n2C (stereo unspecified),1.1,-6.1,2.7,-8.0,i,0.625,1.8
O=C(CCc1nc2ccccc2[nH]1)N1CCc2ccccc2C1,8.7,-4.1,12.2,·,i,0.702,3.5
CCN(CC(=O)Nc1ccc(NC(C)=O)cc1)C(=O)c1ccc(N(C)S(=O)(=O)c2ccc(C)cc2)cc1,·,0.4,1.1,·,i,0.688,-3.2
O=C(COc1ccccc1)NCc1ccc2c(c1)OCO2,-4.3,4.6,3.6,-2.0,·,0.684,-0.6
COc1ccccc1C(=O)COC(=O)C(NC(=O)Cc1ccccc1)C(C)C (stereo unspecified),2.9,4.8,2.8,-8.0,i,0.68,3.8
COc1ccc(CN2CCC(n3nccc3NC(=O)c3cccc(F)c3)CC2)cc1O,-6.2,-0.9,4.8,30.7,i,0.71,6.9
CCN(CC)CCCC(C)NC1=NCCCCC1 (stereo unspecified),-2.2,4.4,1.4,3.2,·,0.72,-1.0
COc1cc(N2CCC(O)CC2)ccc1Nc1nnc(Cl)c(Nc2ccccc2S(C)(=O)=O)n1,·,8.0,3.3,·,·,·,-2.3
C#CCOCCOCCOCCNc1nc(N2CCN(C(=O)[C@H](CCCCN)n3cc(CN)nn3)CC2)nc(N2CCN(C(=O)[C@H](CCC(=O)O)n3cc([C@@H](N)[C@H](C)CC)nn3)CC2)n1,·,-4.3,0.0,·,i,0.639,0.5
O=C(O)C1(Nc2ccccc2Cl)CCCC1,·,-5.3,0.5,·,i,0.652,1.9
CC(=O)Oc1ccccc1/C=C1\CCOC1=O,10.6,-6.6,0.0,19.0,i,0.654,2.1
COc1ccccc1CN=C1NC(=O)C(CC(=O)Nc2ccc(OC)c(OC)c2)S1 (stereo unspecified),2.1,-7.9,3.8,-8.2,·,0.661,-1.3
CCCC(=O)N(c1ccc2oc(C)c(C(C)=O)c2c1)S(=O)(=O)c1ccc(C)c([N+](=O)[O-])c1,3.7,-7.5,2.8,·,·,0.657,1.6
N#CC1=C(O)C(c2ccccc2)n2c1nc(=O)c1ccccc12 (stereo unspecified),-3.0,0.5,-78.9,-4.5,·,0.73,6.0
O=C(CSc1ccc(Cl)cc1)Nc1ccccc1N1CCN(C(=O)c2ccc(Cl)cc2)CC1,1.3,3.7,-4.3,-7.1,i,0.706,2.5
CC(=O)c1ccc(NC(=O)N[C@@H](CC(C)C)C(=O)O)cc1,-4.0,7.0,0.2,-5.7,·,0.689,-0.6
CCOC(=O)C1CCN(S(=O)(=O)c2ccc(C)c(C)c2)CC1,-3.8,-2.6,1.9,-1.0,i,0.705,-3.5
Cc1cccc(OCc2nnc(SCc3cc(=O)n4cc(Br)ccc4n3)o2)c1,1.4,-1.6,-2.3,-5.4,·,0.701,-4.3
NS(=O)(=O)c1ccc(NC(=O)c2ccc(CNS(=O)(=O)c3cc(C(F)(F)F)ccc3Cl)cc2)cc1,0.1,9.8,1.9,-0.7,i,0.628,-2.0
COc1cccc(NC(=O)Cc2nnc(SCC(=O)NC3CCCC3)n2C)c1,2.6,0.2,3.3,·,i,0.641,2.1
Cc1nc2c(C)cccc2c2c1CCN2c1ccccc1F,-0.2,-3.2,i,-34.8,i,0.619,-1.4
O=C(O)c1ccc(/C=N/NC(=O)c2ccc3c(c2)OCCO3)cc1,2.3,-1.4,·,-0.3,i,·,-0.2
CCOC(=O)C(C(=O)OCC)N(C#N)c1nc(SC)nc(N(C)C)n1,5.4,13.4,-0.8,5.3,·,0.698,4.4
CC(=O)c1cc2c(cc1NC(=O)CCn1cnnn1)OCO2,-1.9,3.8,-17.0,-9.3,i,0.614,-0.7
COCCCN(C(=O)Cc1ccc(Cl)c(Cl)c1)c1c(N)n(Cc2ccccc2)c(=O)[nH]c1=O,-0.6,3.9,2.7,-4.0,i,0.69,-3.5
